AF4-AF9 inh: MLL-AF4/AF9 protein interaction inhibition | P42568 | AlphaScreen, biotin-AF4 peptide binding to FLAG-AF9 | inhibition, % at 10 µM | actives 0.47% (n = 350,000) | AID 651704;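 active = every replicate reaching a set inhibition limit, whatever the replicate mean, cut at about 25% in these data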;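 note: 0% = plate neutral control median and 100% = total signal loss; the record names both 10 and 1 µM as test concentration; the first replicate is given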
Target sequence (P42568 whole entry, looked up): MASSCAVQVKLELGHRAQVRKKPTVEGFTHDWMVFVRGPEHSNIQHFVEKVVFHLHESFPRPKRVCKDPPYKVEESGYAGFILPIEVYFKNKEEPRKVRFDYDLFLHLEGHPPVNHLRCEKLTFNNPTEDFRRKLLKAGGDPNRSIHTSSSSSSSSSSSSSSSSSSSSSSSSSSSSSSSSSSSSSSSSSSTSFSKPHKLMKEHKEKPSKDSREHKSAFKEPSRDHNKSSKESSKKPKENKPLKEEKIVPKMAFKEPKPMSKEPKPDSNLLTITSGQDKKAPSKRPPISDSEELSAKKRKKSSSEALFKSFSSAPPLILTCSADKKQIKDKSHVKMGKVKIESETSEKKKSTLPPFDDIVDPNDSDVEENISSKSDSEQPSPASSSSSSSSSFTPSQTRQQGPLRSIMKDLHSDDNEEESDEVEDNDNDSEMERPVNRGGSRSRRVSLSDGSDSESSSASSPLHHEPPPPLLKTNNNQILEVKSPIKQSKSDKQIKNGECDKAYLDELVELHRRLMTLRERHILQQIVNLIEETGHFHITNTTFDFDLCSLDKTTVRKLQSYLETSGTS
Ecoli rRNA inh: inhibits bacterial ribosomal RNA function over humanized ribosomes; actives 1.6% (n = 350,000); AID 720706; E. coli WT GFP vs humanized-ribosome RFP mutants, fluorescence, 24 h; hits give low values; DMSO median 0, no signal -100; GFP signal change (wild-type ribosome), % (test concentration not listed);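 active = significant combined selectivity score with lowered wild-type GFP, culture density cut under 30%, mutant RFP and density less affected; inactive = any of these conditions unmet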; note: one replicate is shown; some compounds called inactive have numbers as strong as hits
Ecoli rRNA inh OD600: recorded beside Ecoli rRNA inh, whose call it bears; OD600 change, %; measured here: OD600 growth;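 optical density of the mix in the first replicate; 0 = DMSO median and -100 = no signal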
Ecoli rRNA inh RFP: second read-out of Ecoli rRNA inh, no call of its own (marks repeat the call); RFP signal change, %; measured here: RFP humanized mutant strains;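 first replicate; 0 = DMSO median and -100 = no signal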
The depositor's hits bear a star. This is a subset; count on the stated rates, not on these rows.

SMILES	AF4-AF9 inh	Ecoli rRNA inh	Ecoli rRNA inh OD600	Ecoli rRNA inh RFP
O=C(c1ccncc1)N1CC(=O)N2[C@H](C1)[C@@H](c1ccc(-c3ccccc3F)cc1)[C@@H]2CO	-3.1	-1	-9	2.1
COc1ccc(C#Cc2ccc3c(c2)[C@@H]2[C@@H](CCN2C(C)=O)[C@H](CO)N3)cc1	23	-10	-17	-11
C[C@@H]1CN([C@H](C)CO)C(=O)Cc2cc(NC(=O)c3ccncc3)ccc2O[C@@H]1CN(C)Cc1ccccc1	-4.8	1	-2	-1.2
O=C(C[C@H]1C=C[C@H](NC(=O)Cc2cccnc2)[C@@H](CO)O1)Nc1ccc(-c2ccccc2)cc1	-3.5	-5	-5	0.1
CCCC(=O)N1CCC2(CC1)CN(C(=O)C1CCOCC1)[C@H](CO)c1[nH]c3cc(OC)ccc3c12	1.4	0	8	-4.5
O=C(C1CCOCC1)N1CC2(C1)[C@@H](c1ccccc1)[C@H](CO)N2Cc1ccc(Cl)cc1	-0.2	-1	-4	3.1
COc1ccc(-c2ccc([C@@H]3[C@H]4CN(Cc5ccc(F)cc5)CC(=O)N4[C@H]3CO)cc2)cc1	0.1	0	5	0.7
CCCN(C(=O)COC(=O)CSc1ccc(C(N)=O)cc1[N+](=O)[O-])C1CCS(=O)(=O)C1 (configuration not stated)	0.0	8	-1	-0.6
O=C(Nc1ccccc1F)N1CC(=O)N2[C@@H](CO)[C@@H](c3ccc(C#Cc4ccc(F)cc4)cc3)[C@@H]2C1	1.4	-27	-65	25
CNC[C@H]1Oc2c(NS(=O)(=O)c3ccc(OC)cc3)cccc2C(=O)N([C@@H](C)CO)C[C@@H]1C	-2.4	3	9	-1.0
COc1ccc2c3c([nH]c2c1)[C@H](CO)N(C(=O)Cc1ccccc1)CC31CCN(C(=O)Cc2ccccc2)CC1	3.0	-4	-11	15
Cc1cc(C(=O)Nc2ccc3c(c2)C(=O)N(C)[C@@H]2CC[C@H](CC(=O)NCC(F)(F)F)O[C@@H]2CO3)no1	1.1	-3	-1	-0.6
O=C(C1CCOCC1)N1CC(=O)N2[C@H](C1)[C@H](c1ccc(C#CCc3ccccc3)cc1)[C@@H]2CO	-1.6	1	-11	1.0
O=C(c1ccccc1)N1CC(=O)N2[C@H](C1)[C@@H](c1ccc(C#CCC3CCCC3)cc1)[C@@H]2CO	2.9	1	-2	3.7
N#C[C@@H]1[C@@H](c2ccc(-c3cccc(F)c3)cc2)[C@@H](CO)N1C(=O)NC1CCCCC1	-3.5	-8	-50	21
CN(C)C(=O)C[C@@H]1C=C[C@H](NC(=O)C2CCOCC2)[C@H](CO)O1	-0.4	2	5	-1.2
Cc1ccc(S(=O)(=O)Nc2ccc3c(c2)C(=O)N([C@H](C)CO)C[C@@H](C)[C@H](CN(C)S(=O)(=O)c2ccc(Cl)cc2)O3)cc1	-3.0	-2	-6	-2.9
Cc1cccc(-c2ccc([C@H]3[C@@H](CO)N4C(=O)CN(C(=O)c5cccnc5)C[C@@H]34)cc2)c1	-1.3	3	6	0.6
O=C(C[C@@H]1C=C[C@@H](NC(=O)Cc2cccnc2)[C@H](CO)O1)Nc1ccc(-c2ccccc2)cc1	-4.6	-4	-9	-1.5
COc1ccc2c3c([nH]c2c1)[C@@H](CO)N(C(=O)Nc1c(C)noc1C)CC31CN(CC2CCOCC2)C1	2.4	3	3	-1.0
O=C(C1CCC1)N1CC(=O)N2[C@H](CO)[C@@H](c3ccc(-c4ccccc4F)cc3)[C@H]2C1	2.2	0	11	-0.6
C[C@@H]1CCCCO[C@@H](CN(C)S(=O)(=O)c2cccs2)[C@H](C)CN([C@@H](C)CO)C(=O)c2cc(NS(=O)(=O)c3ccccc3)ccc2O1	-10	-3	-13	-0.1
O=C(C[C@H]1CC[C@H](NC(=O)C2CCOCC2)[C@@H](CO)O1)Nc1ccccc1	-3.7	1	-4	-1.1
FC(F)(F)c1cccc(CN2[C@@H]3CNC[C@H]2C3c2ccc(-c3ccncc3)cc2)c1 (some centres not stated)	8.2	4	6	-0.6
C[C@@H]1CCCCO[C@@H](CN(C)S(=O)(=O)c2ccccc2)[C@@H](C)CN([C@H](C)CO)C(=O)c2cc(NC(=O)C3CCCCC3)ccc2O1	-2.6	2	0	-1.9
COCC(=O)N1CC2(C1)CN(C(=O)CN1CCOCC1)[C@H](CO)c1c2c2ccc(OC)cc2n1C	-4.8	1	13	-2.1
O=C(C1CCCC1)N1CC[C@@H]2[C@H]1c1cc(-c3cccc(F)c3)ccc1N[C@@H]2CO	6.0	-53	-69	-10
Cc1noc(C)c1NC(=O)N(C)C[C@@H]1OCCCC[C@H](C)Oc2ccc(NS(=O)(=O)c3ccccc3)cc2C(=O)N([C@@H](C)CO)C[C@H]1C	-4.9	-2	0	0.4
C/C=C/c1ccc([C@@H]2[C@@H](CO)N(C(=O)C3CCCC3)C23CN(C(=O)NC(C)C)C3)cc1	1.3	3	0	0.2
CN(C)C(=O)[C@@H]1[C@@H](CO)[C@@H]2Cn3c(ccc(C4=CCCC4)c3=O)[C@H]1N2C	-0.6	3	11	-3.2
CCC(=O)N1CC(=O)N2[C@H](C1)[C@@H](c1ccc(-c3ccc(C#N)cc3)cc1)[C@@H]2CO	-1.5	-3	-2	-1.9
COc1ccc2c3c(n(C)c2c1)[C@@H](CO)N(C(=O)c1ccc(F)cc1)CC31CN(CC2CCOCC2)C1	5.9	2	-5	-1.5
C[C@@H]1CN([C@H](C)CO)C(=O)c2cc(NC(=O)Nc3ccc(F)cc3)ccc2O[C@@H](C)CCCCO[C@H]1CN(C)C(=O)c1ccccc1	3.9	-4	-9	1.4
C[C@@H]1CCCCO[C@H](CN(C)C(=O)Nc2ccc(F)cc2)[C@@H](C)CN([C@H](C)CO)C(=O)c2cc(NS(=O)(=O)c3ccc(Cl)cc3)ccc2O1	-1.5	2	-7	-0.4
O=C(NC1CCC1)[C@H]1[C@H](CO)[C@H]2Cn3c(cccc3=O)[C@@H]1N2CC1CCCC1	-1.8	3	4	-3.4
Cc1ccc(S(=O)(=O)Nc2ccc3c(c2)C(=O)N([C@@H](C)CO)C[C@H](C)[C@H](CN(C)S(=O)(=O)c2ccccc2)OCCCC[C@H](C)O3)cc1	1.5	-1	-6	8.9
C/C=C/c1ccccc1[C@@H]1[C@H](C#N)N(C(=O)CN2CCOCC2)[C@H]1CO	1.2	6	4	-1.0
O=C(c1ccccc1F)N1CC(=O)N2[C@@H](CO)[C@H](c3ccc(-c4ccccc4)cc3)[C@@H]2C1	-1.9	3	6	0.6
O=C(Nc1cccc(F)c1)N1CC(=O)N2[C@H](CO)[C@H](c3ccc(C#Cc4cccnc4)cc3)[C@@H]2C1	-2.1	-1	1	-2.9
CC(C)C#Cc1cnc2c(c1)C(=O)N([C@@H](C)CO)C[C@@H](C)[C@H](CN(C)Cc1ccccn1)O2	-0.5	2	-1	-2.0
C/C=C/c1ccccc1[C@H]1[C@@H](CO)N(C(=O)NC2CCCC2)[C@H]1C#N	1.3	3	4	2.9
CC(C)C#Cc1ccc([C@H]2[C@@H](CO)N(C(=O)C3CC3)[C@H]2CNC(=O)C2CC2)cc1	-0.7	-3	-2	-1.8
C[C@H]1CCCCO[C@H](CN(C)S(=O)(=O)c2ccc(Cl)cc2)[C@@H](C)CN([C@@H](C)CO)C(=O)c2cc(NC(=O)CCCN(C)C)ccc2O1	-1.3	3	0	5.4
COC(=O)[C@H]1[C@H](CO)[C@H]2Cn3c(ccc(C4=CCCCC4)c3=O)[C@H]2N1Cc1cccnc1	-1.3	-3	-2	0.0
O=C(c1cccnc1)N1CC2(C1)[C@@H](c1ccccc1)[C@H](CO)N2Cc1cccnc1	2.2	2	9	-1.5

One compound at a time, from the list above:
C[C@H]1CCCCO[C@H](CN(C)S(=O)(=O)c2ccc(Cl)cc2)[C@@H](C)CN([C@@H](C)CO)C(=O)c2cc(NC(=O)CCCN(C)C)ccc2O1 as listed: AF4-AF9 inh = -1.3; Ecoli rRNA inh = 3; Ecoli rRNA inh OD600 = 0; Ecoli rRNA inh RFP = 5.4
O=C(Nc1cccc(F)c1)N1CC(=O)N2[C@H](CO)[C@H](c3ccc(C#Cc4cccnc4)cc3)[C@@H]2C1 as listed: AF4-AF9 inh = -2.1; Ecoli rRNA inh = -1; Ecoli rRNA inh OD600 = 1; Ecoli rRNA inh RFP = -2.9

Only Ecoli rRNA inh OD600 and Ecoli rRNA inh RFP, for four of the compounds above:
smiles	Ecoli rRNA inh OD600	Ecoli rRNA inh RFP
C[C@@H]1CN([C@H](C)CO)C(=O)c2cc(NC(=O)Nc3ccc(F)cc3)ccc2O[C@@H](C)CCCCO[C@H]1CN(C)C(=O)c1ccccc1	-9	1.4
C[C@@H]1CCCCO[C@H](CN(C)C(=O)Nc2ccc(F)cc2)[C@@H](C)CN([C@H](C)CO)C(=O)c2cc(NS(=O)(=O)c3ccc(Cl)cc3)ccc2O1	-7	-0.4
O=C(NC1CCC1)[C@H]1[C@H](CO)[C@H]2Cn3c(cccc3=O)[C@@H]1N2CC1CCCC1	4	-3.4
Cc1ccc(S(=O)(=O)Nc2ccc3c(c2)C(=O)N([C@@H](C)CO)C[C@H](C)[C@H](CN(C)S(=O)(=O)c2ccccc2)OCCCC[C@H](C)O3)cc1	-6	8.9

(continued)
SMILES	AF4-AF9 inh	Ecoli rRNA inh	Ecoli rRNA inh OD600	Ecoli rRNA inh RFP
CCCC#Cc1ccc([C@@H]2[C@@H](CO)N3C(=O)CN(C(=O)Cc4cccnc4)C[C@@H]23)cc1	-0.5	1	-10	1.2
O=C(Nc1ccc2c(c1)[C@@H]1C[C@@H](CC(=O)N3CCCCC3)O[C@@H](CO)[C@@H]1O2)c1cccnc1	-2.7	1	-4	-2.3
C[C@@H]1CCCCO[C@@H](CN(C)S(=O)(=O)c2ccc(F)cc2)[C@H](C)CN([C@H](C)CO)C(=O)c2cc(NC(=O)Nc3ccc(C(F)(F)F)cc3)ccc2O1	-1.7	-3	8	-4.2
COc1ccccc1C#Cc1ccc([C@H]2[C@@H](C#N)N(C(=O)C3CCCC3)[C@@H]2CO)cc1	-2.0	-24	-50	7.6
CN1CCN(C(=O)C[C@H]2CC[C@@H]3[C@H](COC[C@H](O)CN3CC3CCCC3)O2)CC1	-1.6	2	3	-3.9
O=C(CCN1CCCCC1)NCC[C@@H]1CC[C@H](NC(=O)C2CCCCC2)[C@@H](CO)O1	-4.1	5	4	-2.5
COc1ccc2c3c(n(C)c2c1)[C@@H](CO)N(CC1CCOCC1)CC31CN(Cc2nccs2)C1	8.3	3	8	0.2
CC(=O)N1[C@H](CO)[C@H](c2ccccc2)[C@@H]1CN(C(=O)c1ccccc1F)C(C)C	-1.6	-3	8	-2.7
CCC(=O)N1[C@H](C#N)[C@@H](c2ccccc2-c2ccccc2)[C@@H]1CO	-2.1	4	-1	0.4
CN(C)C(=O)c1cccc(-c2ccccc2[C@@H]2[C@@H](C#N)N(C(=O)C3CCCC3)[C@@H]2CO)c1	-6.4	8	19	1.7
COCC(=O)Nc1ccc2c(c1)C(=O)N(C)C[C@H](OC)[C@@H](C)CN(CCc1ccccc1)[C@@H](C)CO2	6.8	-3	-4	-1.3
O=C([C@@H]1[C@@H](CO)[C@@H]2Cn3c(cccc3=O)[C@@H]2N1C(=O)C1CCCC1)N1CCOCC1	-4.4	4	11	0.0
CN(C)CC(=O)Nc1ccc2c(c1)[C@H]1C[C@H](CC(=O)N3CCN(C)CC3)O[C@@H](CO)[C@H]1O2	0.3	3	7	-2.3
CCCN1[C@@H]2Cn3c(ccc(-c4ccc(OC)cc4)c3=O)[C@H]1[C@@H](C(=O)NCC)[C@@H]2CO	-2.4	-5	2	-2.6
O=C(c1ccccc1)N1C[C@H]2[C@@H](c3ccccc31)[C@H](CO)N2Cc1ccccc1F	-3.9	-4	-8	0.3
O=C(NC1CCCCC1)N1CC(=O)N2[C@H](CO)[C@@H](c3ccc(-c4ccncc4)cc3)[C@H]2C1	-2.8	4	10	1.6
COc1cccc(C#Cc2ccc([C@H]3[C@H](CO)N4C(=O)CN(C(=O)Cc5cccnc5)C[C@@H]34)cc2)c1	0.1	0	3	9.1
O=C(NCCCN1CCOCC1)[C@H]1N[C@H]2c3ccc(C4=CCCCC4)c(=O)n3C[C@H]2[C@@H]1CO	6.1	8	16	-0.6
O=C(C=Cc1ccc2c(c1)OCO2)C1CC1	0.7	5	12	0.2
O=C(C1CCCCC1)N1CC(=O)N2[C@H](C1)[C@H](c1ccc(-c3ccccc3F)cc1)[C@@H]2CO	4.7	1	6	4.1
O=C(C1CCCC1)N1CC(=O)N2[C@H](CO)[C@@H](c3ccc(C#CC4CCCC4)cc3)[C@H]2C1	5.2	-33	-60	13
O=C(O)C[C@@H]1C[C@H]2c3cc(NC(=O)C4CCC4)ccc3O[C@H]2[C@@H](CO)O1	-1.9	2	8	-1.8
O=C(CN1CCOCC1)N[C@@H]1CC[C@@H](CCn2cc(C3CCCC3)nn2)O[C@@H]1CO	-0.9	-3	1	-3.6
CC(=O)N1[C@H](C(=O)NC2CCC2)[C@@H](CO)[C@@H]2Cn3c(ccc(C4=CCCC4)c3=O)[C@@H]21	-4.8	3	12	-0.4
C[C@H]1CN([C@@H](C)CO)C(=O)CCCn2cc(nn2)CO[C@H]1CN(C)S(=O)(=O)c1ccc(Cl)cc1	0.8	-2	-6	2.8
O=C(Cc1ccccc1)N1CC(=O)N2[C@H](CO)[C@@H](c3ccc(C#Cc4ccccc4)cc3)[C@H]2C1	-3.8	-50	-57	-0.8
O=C(c1cccnc1)N1CC(=O)N2[C@H](CO)[C@@H](c3ccc(-c4cccnc4)cc3)[C@H]2C1	18	4	4	1.7
C[C@@H]1CCCCO[C@@H](CN(C)C)[C@H](C)CN([C@@H](C)CO)C(=O)c2cc(N(C)C)ccc2O1	0.0	4	5	0.4

Bioassay records deposited in PubChem BioAssay by Broad Institute.
